E coli growth: E. coli growth inhibition, primary screen, OD600. 330,000 tested, 0.21% active. OD600 absorbance (concentration not given with the values). Escherichia coli growth, 23 h; hits give low values. AID 1053175, 2014;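 active means OD600 absorbance below the run mean of sample wells minus 3.6 SD, in any replicate, cut at about 0.56 in these data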;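 further: stock transfer was 300 nL into about 60 µL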
UCH37 inh: inhibitors of human UCH37 deubiquitinase, primary screen, biochemical, Ub-AMC cleavage, fluorescence. 330,000 tested, 0.33% active. inhibition, % (test concentration not listed). AID 588478, 2011. Ubiquitin carboxyl-terminal hydrolase isozyme L5 (Homo sapiens), Q9Y5K5. purified proteasome/UCH37;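 active means mean of two replicates above 20%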;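 further: 0% = compound-free wells with enzyme and 100% = wells lacking proteasome; stock transfer was 100 nL into about 20 µL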
Target sequence (Q9Y5K5 whole entry, looked up): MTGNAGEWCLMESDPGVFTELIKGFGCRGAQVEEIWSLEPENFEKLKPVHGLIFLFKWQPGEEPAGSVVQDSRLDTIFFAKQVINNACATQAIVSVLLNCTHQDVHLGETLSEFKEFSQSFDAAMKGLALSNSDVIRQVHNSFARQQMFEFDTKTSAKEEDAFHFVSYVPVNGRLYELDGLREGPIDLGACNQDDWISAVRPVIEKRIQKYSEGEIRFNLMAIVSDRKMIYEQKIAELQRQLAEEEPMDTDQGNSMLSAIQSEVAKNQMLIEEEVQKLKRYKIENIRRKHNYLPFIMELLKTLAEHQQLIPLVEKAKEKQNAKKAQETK
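Test system – human UCH37 enzyme supplied as purified proteasome complex · Incubation – 30 min preincubation with enzyme, 25 min cleavage at room temperature · Detection – AMC fluorescence from Ub-AMC cleavage, excitation 355 nm, emission 460 nm · Benchmarks – no-proteasome wells (full inhibition) and compound-free wells (no inhibition)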
Beta2AR agonist: beta2AR agonists driving receptor internalization, primary screen, cell-based, FAP fluorogen, flow cytometry; Beta-2 adrenergic receptor (Homo sapiens), P07550; Am2.2-beta2AR cells; reference of the scale not given here; response, % (concentration not given with the values); 340,000 tested, 0.43% active; AID 504454, 2011;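 active means response above a set limit, near 3 SD of response in nonfluorescent compounds, cut at about 42% in these data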;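 further: stock transfer was 100 nL into about 11 µL; a reference agonist was the positive control; negative values mostly stem from fluorescent compounds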
HNF4A DNA FP: change in binding of human HNF4A to DNA, primary screen, biochemical, fluorescence polarization, FITC-DNA. 360,000 tested, 0.3% active. 1 h. AID 1224865, 2016. activity change, % at 10 µM; in the data active means activity change above about 30%, passing the limit was not always enough;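 further: controls were the assay level and a saturating level of protein; the project sought stronger binding though the title names inhibitors; some compounds called inactive have numbers as strong as hits; positive values seem to mean higher polarization but the record does not say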
Target sequence (P41235 whole entry, looked up): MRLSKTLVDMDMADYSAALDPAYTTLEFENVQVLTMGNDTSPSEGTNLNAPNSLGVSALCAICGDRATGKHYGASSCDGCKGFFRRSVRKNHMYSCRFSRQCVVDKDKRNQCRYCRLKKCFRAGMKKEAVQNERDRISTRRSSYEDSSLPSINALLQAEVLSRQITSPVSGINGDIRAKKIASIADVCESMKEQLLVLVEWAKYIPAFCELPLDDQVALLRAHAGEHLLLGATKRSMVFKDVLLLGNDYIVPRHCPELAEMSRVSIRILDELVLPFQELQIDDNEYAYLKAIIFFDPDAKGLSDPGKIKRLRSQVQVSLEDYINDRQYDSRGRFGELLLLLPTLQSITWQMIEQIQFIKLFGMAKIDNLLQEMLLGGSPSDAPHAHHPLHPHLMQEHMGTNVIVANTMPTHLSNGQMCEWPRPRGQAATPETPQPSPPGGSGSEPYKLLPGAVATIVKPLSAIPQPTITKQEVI
Bfl-1 A1 inh: caspase 3/7 activation in MEF A1-2A-BIM cells, primary screen, A1 inhibitor project, cell-based, luminescence, HTS; Caspase-Glo 3/7 luminescence, 3 h; percent of clofoctol response, vehicle zero; caspase activation, % (concentration not given with the values); 330,000 tested, 0.066% active; AID 2462, 2010;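 active means over half of replicate activation scores above 10%, or exactly half above 10 with the replicate mean above 10; inconclusive means replicate mean below 10 yet half the replicates above 10; inactive means over half of replicates below 10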;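 further: wells of about 30 µL received 50 nL stock; many hits fall short of the cut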
LANA-H2A inh: blockers of LANA interaction with H2A/H2B – biochemical, FP readout, HTS, primary screen; cell-free LANA-H2A/H2B peptide, fluorescence polarization; AID 2629, 2010; inhibition, % (no concentration beside the values); 320,000 tested, 0.6% active; in the data active means inhibition mostly above about 10%, no sharp cut-off; inactive means mostly below about 6.7%;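 further: stock transfer was 7.5 nL into about 10 µL; 0% = median of vehicle wells and 100% = median of positive control wells; one replicate is shown; the record names a cut of 25% in any replicate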
Vif A3G: inhibitors of Vif binding to APOBEC3G peptide, primary screen, biochemical, TR-FRET, GST-Vif 1-94, biotin-A3G peptide, dose response retest (AID 1117319); 260,000 tested, 0.57% active; TR-FRET GST-Vif / biotin-A3G peptide binding; higher % means a stronger effect; test concentration not given here; strong numbers were not always called active; one-dose inhibition, %; IC50 in µM for titrated hits; Virion infectivity factor (Human immunodeficiency virus type 1 group M subtype B (isolate …;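 active means above the screen mean plus three standard deviations and confirmed in dose response; inconclusive means results disagree or hit not tested in dose response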;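 further: Vif residues 1-94 fused to GST binding biotinylated APOBEC3G peptide 110-148; 0% = full assay without inhibitor and 100% = GST in place of GST-Vif; retest series ran down from 100 µM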
* marks the source's active call; other numbers are inactive results.

A first look:
Screening CCOC(=O)C1CCN(CC(=O)N(CC(C)C)c2c(N)n(CC(C)C)c(=O)[nH]c2=O)CC1 returned E coli growth 0.682, UCH37 inh -0.2, Beta2AR agonist 1.3, HNF4A DNA FP 2.0, Bfl-1 A1 inh 0.3 and LANA-H2A inh -5.1.
For CC(=NN=C(C)c1ccc(O)cc1)c1ccc(O)cc1 the results were E coli growth 0.69, UCH37 inh 7.1, Beta2AR agonist 33.2, HNF4A DNA FP 1.0 and Vif A3G 2.8%.

All compounds of this part, from the first entry:
Screening CCOC(=O)C1CCN(CC(=O)N(CC(C)C)c2c(N)n(CC(C)C)c(=O)[nH]c2=O)CC1 returned E coli growth 0.682, UCH37 inh -0.2, Beta2AR agonist 1.3, HNF4A DNA FP 2.0, Bfl-1 A1 inh 0.3 and LANA-H2A inh -5.1.
For CC(=NN=C(C)c1ccc(O)cc1)c1ccc(O)cc1 the results were E coli growth 0.69, UCH37 inh 7.1, Beta2AR agonist 33.2, HNF4A DNA FP 1.0 and Vif A3G 2.8%.
`CCCCOc1ccc(C(=O)OCC(=O)Nc2cc(C)c(C)cc2[N+](=O)[O-])cc1` gave E coli growth 0.736, UCH37 inh 2.7, Beta2AR agonist -4.1, HNF4A DNA FP 3.3, Bfl-1 A1 inh 0.3 and LANA-H2A inh -0.6.
`Cc1ccc(S(=O)(=O)Oc2ccc(/C=N/NC(=O)c3c(Cl)cnn3C)cc2)cc1` gave Beta2AR agonist -0.1, HNF4A DNA FP 0.1, Bfl-1 A1 inh -0.5, LANA-H2A inh -4.0 and Vif A3G -3.5%.
For CC(C)C(NC(=O)OCc1ccccc1)C(=O)N1CCOCCOCCOCC1 (stereo not drawn) the results were E coli growth 0.687, UCH37 inh 0.9, Beta2AR agonist -0.6, HNF4A DNA FP 1.9, Bfl-1 A1 inh -0.6 and LANA-H2A inh -0.8.
For Cc1cc(/C=C2/SC(=O)NC2=O)c(C)n1-c1ccc(N2CCOCC2)cc1 the results were UCH37 inh 3.4, Beta2AR agonist 15.1, HNF4A DNA FP -0.5, Bfl-1 A1 inh 0.9 and LANA-H2A inh -0.5.
For CC1(C)CC(=O)C2=C(C1)N(c1ccc(F)cc1)C(=O)C2(NC(=O)c1ccccc1F)C(F)(F)F (stereo not drawn) the results were E coli growth 0.652, UCH37 inh 3.0, Beta2AR agonist -3.9, HNF4A DNA FP 1.1, Bfl-1 A1 inh 1.0, LANA-H2A inh 11.8 and Vif A3G -24.0%.
O=C(CCc1nnc2ccc(NCc3ccco3)nn12)N1CCN(c2ccccc2F)CC1 was read as E coli growth 0.638, UCH37 inh 0.0, Beta2AR agonist -6.0, HNF4A DNA FP 1.0, Bfl-1 A1 inh -0.4 and LANA-H2A inh 0.7.
Screening Cc1cc(OCc2nc(-c3ccncc3)no2)cc(C)c1Cl returned E coli growth 0.683, UCH37 inh 1.7, Beta2AR agonist 2.5, HNF4A DNA FP -0.3, Bfl-1 A1 inh -0.7 and LANA-H2A inh 5.8.
For CC(C)(C)NC(=O)C(c1ccc(-c2ccccc2)cc1)N(C[C@H]1CC[C@@H]([C@@H]2CC[C@H](CO)O2)O1)C(=O)c1ccc2ccccc2c1 (stereo partly drawn) the results were E coli growth 0.733, UCH37 inh 1.3, Beta2AR agonist -3.2, HNF4A DNA FP -0.7 and Vif A3G -1.8%.
O=c1nc2n(c3cc(Cl)c(S(=O)(=O)N4CCOCC4)cc13)CCCCC2 was read as E coli growth 0.758, UCH37 inh -3.7, Beta2AR agonist -4.7, HNF4A DNA FP -1.0, Bfl-1 A1 inh 0.9, LANA-H2A inh -1.1 and Vif A3G -2.1%.
CCc1ccc(/C=C(\C#N)C(=O)NC2CCS(=O)(=O)C2)cc1 (stereo not drawn) was read as E coli growth 0.672, UCH37 inh 2.5, Beta2AR agonist 3.7, HNF4A DNA FP -2.5, Bfl-1 A1 inh -1.5, LANA-H2A inh -0.1 and Vif A3G 3.0%.
For CSc1nsc(SC)c1C(=O)Nc1ccc(C)cc1 the results were E coli growth 0.765, UCH37 inh -1.1, Beta2AR agonist -7.2, HNF4A DNA FP -0.5, Bfl-1 A1 inh -0.5, LANA-H2A inh 2.9 and Vif A3G 2.7%.
For N#CCSCC(=O)Nc1ccc(Br)cc1 the results were E coli growth 0.651, UCH37 inh -0.2, Beta2AR agonist 6.7, HNF4A DNA FP -2.0, Bfl-1 A1 inh 2.0, LANA-H2A inh -3.1 and Vif A3G -3.6%.
`CCC(C)(NC(=O)CNC(C)=O)C(=O)NC1CCCCC1` (stereo not drawn) gave E coli growth 0.691, UCH37 inh 0.2, Beta2AR agonist 3.5, HNF4A DNA FP 1.4, Bfl-1 A1 inh -0.9, LANA-H2A inh -1.2 and Vif A3G -7.4%.
COc1ccc(-c2ccc(-c3noc(-c4ccccc4F)n3)c(OC)n2)cc1 was read as E coli growth 0.68, UCH37 inh -388.9, Beta2AR agonist 3.0, HNF4A DNA FP 7.1 and Vif A3G -7.2%.
`COc1ccc(Nc2nc(OC)nc(OC)n2)cc1` gave E coli growth 0.626, UCH37 inh 0.2, Beta2AR agonist 1.0, HNF4A DNA FP -0.6, Bfl-1 A1 inh 0.4, LANA-H2A inh -1.5 and Vif A3G 2.8%.
For CCOc1cc(C(=O)OCC(=O)NC(C)c2ccccc2)ccc1OCC(=O)N1CCOCC1 (stereo not drawn) the results were E coli growth 0.658, UCH37 inh 1.4, Beta2AR agonist 0.4, HNF4A DNA FP 1.0, Bfl-1 A1 inh -1.0, LANA-H2A inh -6.9 and Vif A3G -5.8%.
For C1N2CN3CN1CN(C2)C3 the results were E coli growth 0.678, UCH37 inh 0.1, Beta2AR agonist -3.5, HNF4A DNA FP -1.0, Bfl-1 A1 inh -0.7 and LANA-H2A inh 2.7.
CCOC(=O)c1c(C)[nH]c(C(=O)OCC(=O)N2CCN(S(=O)(=O)c3ccccc3)CC2)c1C was read as E coli growth 0.665, UCH37 inh 0.6, Beta2AR agonist 2.7, HNF4A DNA FP 1.5, Bfl-1 A1 inh 0.7, LANA-H2A inh 0.1 and Vif A3G 32.9%.
For COCCCn1c(C)nnc1SCC(=O)NNC(=O)COc1ccc(Cl)cc1 the results were E coli growth 0.652, UCH37 inh 5.4, Beta2AR agonist 4.8, HNF4A DNA FP -3.0, Bfl-1 A1 inh 0.3 and LANA-H2A inh -0.8.
For O=C(COc1ccc(S(=O)(=O)NC2CCCCC2)cc1)NC1CC1 the results were E coli growth 0.672, UCH37 inh 2.1, Beta2AR agonist 3.1, HNF4A DNA FP 0.8, Bfl-1 A1 inh 0.7 and LANA-H2A inh 3.0.
For CC(c1ccccc1)n1c(S(=O)(=O)O)nc2ccccc21 (stereo not drawn) the results were E coli growth 0.62, UCH37 inh 1.0, Beta2AR agonist -0.6, HNF4A DNA FP -0.6, Bfl-1 A1 inh 0.4, LANA-H2A inh -1.7 and Vif A3G -0.9%.
Screening Clc1ccccc1-c1nc(-c2cccnc2)no1 returned E coli growth 0.665, UCH37 inh -1.0, Beta2AR agonist -14.6, HNF4A DNA FP 2.8, Bfl-1 A1 inh -7.3, LANA-H2A inh 4.0 and Vif A3G -1.4%.
Screening CC1=C(C(=O)Nc2ccc(C)cc2C)C(c2ccc(Cl)cc2)n2nc(C(=O)OC(C)C)nc2N1 (stereo not drawn) returned E coli growth 0.707, UCH37 inh 2.1, Beta2AR agonist -2.6, HNF4A DNA FP -1.7, Bfl-1 A1 inh 1.4, LANA-H2A inh 0.5 and Vif A3G -3.6%.
`CC(=O)Nc1ccc(NC(=O)CN2C(=O)COc3ccc(S(=O)(=O)N4CCOCC4)cc32)cc1` gave E coli growth 0.679, UCH37 inh 1.1, Beta2AR agonist 3.7, HNF4A DNA FP 0.9, Bfl-1 A1 inh -0.9 and LANA-H2A inh 1.6.
Screening Cc1cc(C(=O)N/N=C/c2ccc3c(c2)OCO3)c2ccccc2n1 returned Beta2AR agonist -5.2, HNF4A DNA FP -1.3, Bfl-1 A1 inh 0.9 and LANA-H2A inh 2.5.
`CCCN1CCC(N(CCc2ccccc2)Cc2ccccc2)CC1` gave E coli growth 0.656, UCH37 inh -1.1, Beta2AR agonist 1.8, HNF4A DNA FP 1.3, Bfl-1 A1 inh -0.1 and LANA-H2A inh -1.7.
For CC(=O)N1CCC(CCCC2CCN(C(C)=O)CC2)CC1 the results were E coli growth 0.702, UCH37 inh -1.7, Beta2AR agonist -0.3, HNF4A DNA FP -1.9, Bfl-1 A1 inh 0.3 and LANA-H2A inh -4.4.
Screening CNC[C@H](CC1CCCCC1)NC[C@H](CO)NCCc1cccc(C(F)(F)F)c1 returned Beta2AR agonist 18.7, HNF4A DNA FP 0.9, Bfl-1 A1 inh 0.3 and LANA-H2A inh 1.3.
`CCOc1cc(/C=C/C(=O)O)ccc1OCCOc1ccccc1` gave E coli growth 0.644, UCH37 inh -0.1, Beta2AR agonist 4.3, HNF4A DNA FP -0.9, Bfl-1 A1 inh -0.6 and LANA-H2A inh -3.5.
Screening O=C1NCCO1 returned UCH37 inh 4.4, Beta2AR agonist -4.0, HNF4A DNA FP 2.7, Bfl-1 A1 inh -0.2 and LANA-H2A inh 2.0.
Screening Cc1ccc(S(=O)(=O)NNC(=O)c2ccccc2-n2cccc2)cc1 returned E coli growth 0.685, UCH37 inh -1.2, Beta2AR agonist -0.5, HNF4A DNA FP -0.4, Bfl-1 A1 inh 0.4 and LANA-H2A inh 6.4.
For COc1cc(CNCCc2ccccc2)ccc1OCC(N)=O the results were Beta2AR agonist 1.4, HNF4A DNA FP 1.3, Bfl-1 A1 inh -0.7, LANA-H2A inh 19.6* and Vif A3G -1.7%.
COc1cccc(CNC(=O)c2cc(C3CC3)nc3c2cnn3C(C)C)c1 was read as E coli growth 0.673, UCH37 inh -13.8, Beta2AR agonist 5.0, HNF4A DNA FP 0.3, Bfl-1 A1 inh -0.2, LANA-H2A inh -3.0 and Vif A3G 1.2%.
Screening COc1ccc(/C=N/N2CCN(C)CC2)c(OC)c1OC returned Beta2AR agonist 1.5, HNF4A DNA FP -3.9, Bfl-1 A1 inh -0.3, LANA-H2A inh -1.0 and Vif A3G 5.7%.
`CCCCOc1ccc(C(=O)N/C(=C\c2cccc([N+](=O)[O-])c2)C(=O)OCCC)cc1` gave E coli growth 0.757, UCH37 inh -0.6, Beta2AR agonist -2.4, HNF4A DNA FP -2.7, Bfl-1 A1 inh 0.0, LANA-H2A inh -0.5 and Vif A3G inconclusive.
For COc1cc(/C=N/NC(=O)c2ccc(CSc3nncn3C)cc2)ccc1OCC(=O)N1CC(C)OC(C)C1 (stereo not drawn) the results were Beta2AR agonist -8.9, HNF4A DNA FP 4.1, Bfl-1 A1 inh 2.0, LANA-H2A inh -2.5 and Vif A3G 8.2%.
Screening CN(C)/C(=N\S(=O)(=O)c1ccc(F)cc1)c1ccccc1 returned Beta2AR agonist 9.5, HNF4A DNA FP -0.2, Bfl-1 A1 inh 0.4, LANA-H2A inh -6.2 and Vif A3G 0.8%.
O=C1CC(NNc2ccccc2)C(=O)N1c1ccc(N2CCCCC2)cc1 (stereo not drawn) was read as E coli growth 0.678, UCH37 inh -2.1, Beta2AR agonist -4.0, HNF4A DNA FP 7.1 and Vif A3G 13.3%.

Screening results deposited in PubChem by several laboratories.
